Sa helicase inh: inhibitors of S. aureus replicative helicase, primary screen, biochemical, fluorescence unwinding readout. replicative DNA helicase (DnaC/DnaB), Staphylococcus aureus. inhibition, %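 (tested at about 80 µM)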. purified S. aureus helicase, fluorescence unwinding assay; about half of the hits fall short of the stated cut. 120,000 compounds, 0.05% hits. AID 485395, 2010;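 active = both duplicates at 50% or more, or one of them with a favoured structure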;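 note: 0% = mean of negative control wells and 100% = mean of positive control wells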
MgrA DNA FP: S. aureus MgrA activity modulators, primary screen, biochemical, S. aureus Newman, fluorescence polarization; MgrA-DNA binding; inhibition, %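 (about 10 µg/mL by stock and volumes)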; 84,000 compounds, 0.13% hits; AID 602314, 2012;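 active = above 50% in either of two replicates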;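 note: 0% = protein plus DNA without compound and 100% = DNA alone without protein; higher means less MgrA bound to DNA so lower polarization; one replicate is shown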
Numbers without * were called inactive; / = no result given. Not all compounds are listed, so the mix of outcomes need not match the whole.

Values run as follows: Sa helicase inh, MgrA DNA FP
> CCC1C(=O)C2=C(CC(C)(C)CC2=O)N(c2ccc(OC)cc2)C1c1ccccc1 (stereo not drawn)
→ 8.0, -0.1
> CCn1c(C(=O)NCCCc2ccccc2)cc2oc3ccccc3c21
→ -9.0, 1.2
> CCCCCCC1CC=C(C(=O)O)CC1 (stereo not drawn)
→ 3.0, 1.8
> Cc1ccc2c(c1)CCCN2S(=O)(=O)c1c(C)c(C)c(C)c(C)c1C
→ /, -0.4
> COc1ccccc1C(=O)Nc1cc(C)c(OCC(=O)N2CCOCC2)c(C)c1
→ -4.0, 0.4
> N#CCSc1ccc2ccccc2c1
→ /, -1.4
> O=C(Oc1ccccc1)ON1C(=O)C2C3C=CC(O3)C2C1=O (stereo not drawn)
→ /, -1.8
> COc1cc(S(=O)(=O)n2cnc3cc(C)c(C)cc32)ccc1Cl
→ 7.0, /
> Cc1cc(=O)n(CNC(=O)c2ccco2)cn1
→ 0.0, -2.7
> COc1ccc(/C=N/NC(=O)c2ccccc2)cc1OC
→ -2.0, 1.0
> CCN(CC(=O)NCc1cccs1)C(=O)c1ccc(S(=O)(=O)N2CCOCC2)cc1
→ -11.0, /
> O=c1oc2ccc(Br)cc2cc1-c1nnc(-c2ccncc2)o1
→ 15.0, /
> CC(C)(CNC(=O)c1cc(Cl)c(O)c(Cl)c1)N1CCOCC1
→ -8.0, /
> CC1CC(C)CN(C(=O)C(C)n2sc3ccccc3c2=O)C1 (stereo not drawn)
→ 5.0, /
> CSc1nc(N)nc(C2CC2)n1
→ /, -2.1
> Cc1ccc2c(CC(=O)N3CCSC3=Nc3ccccc3C)coc2c1
→ 10.0, /
> C=CCN1C(=O)c2oc3ccccc3c(=O)c2C1c1ccc(OC)cc1 (stereo not drawn)
→ -2.0, /
> C=CCc1cccc(CNc2ccc(Cl)cc2)c1O
→ -1.0, /
> CCCCC(=O)NC(c1cccs1)c1cc(Cl)c2cccnc2c1O (stereo not drawn)
→ 5.0, /
> CC(=O)n1c(/C=C2\C=c3cccc(C)c3=NC2=O)c(O)[nH]c1=S
→ -4.0, 41.5
> CCCCn1nnnc1CSc1nc2cc(Cl)ccc2n1Cc1ccccc1
→ -18.0, /
> O=C(Nc1cnn(Cc2ccc(F)cc2)c1)c1cc(-c2ccc(Br)cc2)on1
→ 18.0, /
> C/C(=N/N=C1/NC(=O)CC(C(=O)O)S1)c1ccccc1 (stereo not drawn)
→ 4.0, /
> Cc1cc(NC(=O)CCC(=O)N(c2ccc(F)cc2)C2(C(=O)NC3CCCCC3)CCCC2)no1
→ 0.0, -2.0
> CC(C)n1c(SCC(=O)C(C)(C)C)nc2cc(C(F)(F)F)ccc21
→ /, -2.6
> COc1ccc2cc(C(=O)c3ccc(Cl)c(C)c3)oc2c1
→ /, -0.1
> COc1ccc(Br)cc1-c1nc(COC(=O)c2ccc(C)o2)cs1
→ -5.0, /
> O=C(COc1ccc2ccc(=O)oc2c1)NC1CCCC1
→ 8.0, -2.8
> CC1=C(C#N)C(c2ccc(O)cc2)C2=C(CCCC2=O)N1 (stereo not drawn)
→ -6.0, /
> CC(C)N(CC(N)=O)c1ncnc2sc(-c3ccccc3)cc12
→ -14.0, /

Next part; the last 4 above are carried over.
Values run as follows: Sa helicase inh, MgrA DNA FP
> COc1ccc(Br)cc1-c1nc(COC(=O)c2ccc(C)o2)cs1
→ -5.0, /
> O=C(COc1ccc2ccc(=O)oc2c1)NC1CCCC1
→ 8.0, -2.8
> CC1=C(C#N)C(c2ccc(O)cc2)C2=C(CCCC2=O)N1 (stereo not drawn)
→ -6.0, /
> CC(C)N(CC(N)=O)c1ncnc2sc(-c3ccccc3)cc12
→ -14.0, /
> O=C1c2ccccc2C(=O)N1CCSc1nnc(Cc2cccs2)n1CCc1ccccc1
→ 12.0, /
> CCc1cc(Br)ccc1NC(C)=O
→ /, 0.0
> Cc1cc2c(C)nc3ccc(C(=O)O)cc3c2o1
→ 13.0, -2.5
> O=S(CCSc1nc2ccccc2s1)Cc1ccccc1 (stereo not drawn)
→ 1.0, 3.0
> CN(Cc1ccccc1)C(=O)c1cccn2c(=O)c3c4c(sc3nc12)CCCC4
→ 4.0, 0.6
> Cc1ccc(S(=O)(=O)N2c3cccc4cccc(c34)S2(=O)=O)cc1C
→ 10.0, /
> O=C(OCn1nnc2ccccc2c1=O)C1CC(=O)N(Cc2ccco2)C1 (stereo not drawn)
→ 4.0, /
> CC(=O)N1N=C(c2ccco2)OC1c1ccc(-c2ccccc2)cc1 (stereo not drawn)
→ 6.0, /
> N=c1n(CCO)c2ccccc2n1CCOc1ccc(Cl)cc1Cl
→ 11.0, 1.9
> COC(=O)c1cc(/C=C/c2ccccc2)on1
→ 8.0, /
> CCN1CN=C(SCc2ccccc2Cl)NC1
→ /, 0.2
> CC1Oc2ccccc2N(CC(=O)NC2CCCC2)C1=O (stereo not drawn)
→ -6.0, -0.1
> O=C(CCS(=O)(=O)Cc1ccccc1)N1CCN(C(=O)c2ccco2)CC1
→ 22.0, -0.1
> Cc1cc(C)nc(NC2=NCCN2C(=O)Nc2ccc(Cl)c(Cl)c2)n1
→ 9.0, -0.5
> CC(C)(C)S(=O)(=O)/C(C#N)=C/NN1CCCCC1
→ /, -1.1
> CC(C)c1cc(C(=O)N2CC3(C)CC2CC(C)(C)C3)no1 (stereo not drawn)
→ -10.0, /
> COC(=O)c1c(=O)n(O)c2cc(Cl)c(Cl)cc2[n+]1[O-]
→ 14.0, 1.8
> COc1cccc2c1NC(c1cccc(Cl)c1Cl)C1CC=CC21 (stereo not drawn)
→ /, -1.1
> Cc1nn(CC(=O)NC2CCCC2)c(=O)c2cccn12
→ 4.0, /
> O=C(COC(=O)c1c2c(nc3ccccc13)CCCC2)NCc1ccco1
→ -9.0, /
> COc1ccc(NS(=O)(=O)c2cccc3nsnc23)c(OC)c1
→ -8.0, /
> Cn1c(=O)c2c(nc(NC3CCCCC3)n2Cc2cccc(Br)c2)n(C)c1=O
→ /, -1.0
> COc1cc(/C=C/C(=O)OCc2c(C)noc2C)cc(S(=O)(=O)N2CCc3ccccc32)c1OC
→ -5.0, /
> Cc1c(C#N)c(O)n(CCCO)c(=O)c1N=Nc1c(C)n(C)n(-c2ccccc2)c1=O
→ -25.0, /
> COc1ccc(CNC(=O)CCn2c(=S)[nH]c3cc4c(cc3c2=O)OCO4)cc1
→ -5.0, /
> N#CCCc1c(Br)ccc(OCc2ccccc2)c1OCc1ccccc1
→ /, 0.3
> CC(=O)Oc1ccc(-c2nc3ccccc3c(=O)o2)cc1
→ -2.0, 2.4
> COc1ccc(-c2nc(SCc3ccccc3C#N)[nH]c(=O)c2C#N)cc1
→ 9.0, -1.6
> CC1SCC(=O)N(CC(=O)NC2CCCCC2)C1=O (stereo not drawn)
→ -8.0, /
> O=C(CCN1C(=O)COc2ccccc21)NCCCN1CCN(c2ccc(F)cc2)CC1
→ 7.0, /

Ordered by heavy-atom count (ascending): part of the list above
Values run as follows: Sa helicase inh, MgrA DNA FP
> CCc1cc(Br)ccc1NC(C)=O
→ /, 0.0
> COC(=O)c1cc(/C=C/c2ccccc2)on1
→ 8.0, /
> Cc1cc2c(C)nc3ccc(C(=O)O)cc3c2o1
→ 13.0, -2.5
> COC(=O)c1c(=O)n(O)c2cc(Cl)c(Cl)cc2[n+]1[O-]
→ 14.0, 1.8
> Cc1nn(CC(=O)NC2CCCC2)c(=O)c2cccn12
→ 4.0, /
> CC(=O)Oc1ccc(-c2nc3ccccc3c(=O)o2)cc1
→ -2.0, 2.4
> COc1ccc(NS(=O)(=O)c2cccc3nsnc23)c(OC)c1
→ -8.0, /
> N=c1n(CCO)c2ccccc2n1CCOc1ccc(Cl)cc1Cl
→ 11.0, 1.9
> CC(=O)N1N=C(c2ccco2)OC1c1ccc(-c2ccccc2)cc1 (stereo not drawn)
→ 6.0, /
> O=C(CCS(=O)(=O)Cc1ccccc1)N1CCN(C(=O)c2ccco2)CC1
→ 22.0, -0.1
> Cn1c(=O)c2c(nc(NC3CCCCC3)n2Cc2cccc(Br)c2)n(C)c1=O
→ /, -1.0
> CN(Cc1ccccc1)C(=O)c1cccn2c(=O)c3c4c(sc3nc12)CCCC4
→ 4.0, 0.6
> Cc1c(C#N)c(O)n(CCCO)c(=O)c1N=Nc1c(C)n(C)n(-c2ccccc2)c1=O
→ -25.0, /
> O=C(CCN1C(=O)COc2ccccc21)NCCCN1CCN(c2ccc(F)cc2)CC1
→ 7.0, /
> O=C1c2ccccc2C(=O)N1CCSc1nnc(Cc2cccs2)n1CCc1ccccc1
→ 12.0, /
> COc1cc(/C=C/C(=O)OCc2c(C)noc2C)cc(S(=O)(=O)N2CCc3ccccc32)c1OC
→ -5.0, /

Other compounds follow:
Values run as follows: Sa helicase inh, MgrA DNA FP
> O=C(COCc1cc(-c2ccco2)on1)NCCc1ccccc1
→ 11.0, /
> CCCCC(=O)C1CCC(c2ccc(Cl)cc2)CC1 (stereo not drawn)
→ 9.0, -0.6
> CC(=O)N1CCC(C(=O)O/N=C(\N)c2ccc(Cl)cc2)CC1
→ -19.0, /
> CN(Cc1ccccc1)C(=O)C1CCCN1S(=O)(=O)c1ccc2c(c1)CCCC(=O)N2 (stereo not drawn)
→ 9.0, /
> CSc1nn(-c2c(Cl)cc(C(F)(F)F)cc2Cl)c(N)c1C#N
→ /, -1.4
> O=c1n(-c2ccccc2)c(=O)n2n1CCC2
→ 9.0, /
> O=C(O)[C@@H]1Cc2ccccc2N1
→ /, -0.6
> O=C(O)CCC(=O)c1ccc2c(c1)OCCO2
→ /, -1.5
> COc1ccc(N=C2SCC(C(C)(C)C)=NN2C)cc1
→ -11.0, /
> COC(=O)c1ccc(CSc2ccc(S(=O)(=O)N3CCCC3)cn2)o1
→ -4.0, /
> O=C(OCC1CCCO1)c1ccccc1C(F)(F)F (stereo not drawn)
→ -18.0, 0.2
> CN1CCOc2cc(S(=O)(=O)NC3CCCCNC3=O)ccc21 (stereo not drawn)
→ 10.0, /
> CC(C)(C)C(=O)COC(=O)c1ccc2c(=O)n3c(nc2c1)CCCCC3
→ -4.0, /
> O=C(O)CCC(=O)Nc1ccccn1
→ -8.0, -1.3
> CCOC(=O)C(C)C1(O)c2ccccc2-c2ncccc21 (stereo not drawn)
→ 15.0, -0.5
> CC(NC(=O)Cc1ccsc1)c1ccc(S(N)(=O)=O)cc1 (stereo not drawn)
→ -2.0, /
> COc1ccc(C2CC(c3ccccc3)n3ncnc3N2C(C)=O)cc1 (stereo not drawn)
→ 0.0, -0.5
> N#C/C(=C\NCc1cccs1)S(=O)(=O)Cc1ccc(Cl)cc1
→ /, 0.6
> Cc1cc(C(=O)COC(=O)c2ccc(=O)n(Cc3ccccc3)n2)c(C)n1C1CC1
→ -10.0, /
> CCOC(=O)c1nc(N2CCc3ccccc32)c2ccccc2n1
→ -4.0, /
> COC(=O)/C(C#N)=C/c1cccc(Br)c1
→ -33.0, /
> C(=NCc1ccc2c(c1)OCO2)c1cccnc1
→ 7.0, -2.2
> COc1cc(-c2nc(Nc3ccc(C)c(F)c3)c3ccccc3n2)cc(OC)c1OC
→ 9.0, -0.9
> Cc1cccnc1NC(=O)c1ccc(S(=O)(=O)N2CCCCC2)cc1
→ 5.0, /
> Cc1cc2c(cc1C)NC(C)CC(=O)N2 (stereo not drawn)
→ /, 1.4
> CCN(CC)CCCC(C)Nc1nc(C)nc2cc(Cl)ccc12 (stereo not drawn)
→ /, -0.9
> C[C@H](CCC(=O)NCC(=O)O)[C@H]1CC[C@H]2[C@@H]3[C@H](O)C[C@@H]4C[C@H](O)CC[C@]4(C)[C@H]3C[C@H](O)[C@]12C
→ /, -0.8
> CC(Sc1nc2c(n1-c1ccccc1)CCCC2)C(=O)Nc1ccc(S(N)(=O)=O)cc1 (stereo not drawn)
→ 5.0, /
> CO/N=C/C1=C(Sc2nc3ccccc3s2)CCCC1
→ -9.0, /
> CCCc1[nH][nH]c(=O)c1C(c1ccc(Cl)cc1)C(C#N)C#N (stereo not drawn)
→ -7.0, 7.2
> Cc1nc(SCC(=O)c2cn(CCC#N)c3ccccc23)n(C2CCCCC2)c1C
→ 6.0, /
> COC(=O)/C(C#N)=C1/C(=O)Nc2ccccc21
→ /, -0.9
> CC(C)(C)NC(=S)N/N=C/c1ccc(O)cc1
→ 27.0, /
> CCc1ccc(C2CC(=O)Nc3c2c(C)nn3-c2nc3ccccc3s2)cc1 (stereo not drawn)
→ -21.0, /
> O=C(Cc1csc2ccc(Cl)cc12)OCc1ccccc1
→ /, -1.0
> CCC(CC)C1C(C#N)=C(N)SC(N)=C1C#N
→ -3.0, /
> O=C(O)Cn1cc(C(=S)N2CCCCC2)c2ccccc21
→ 5.0, 5.8
> CC(C)(C)NC(=O)CCn1nc(-c2ccccc2)c2ccccc2c1=O
→ -3.0, -2.2
> OC(Cn1cncn1)(Cn1cncn1)c1ccc(F)cc1F
→ /, 2.6
> CCCCn1c(N)c(N(C(=O)c2ccc(Cl)c(Cl)c2)C2CCCC2)c(=O)[nH]c1=O
→ -7.0, /
> C=C(C)CN(CC)C(=O)CSc1nnc(Cc2cccc3ccccc23)n1N
→ -9.0, /
> O=C(NS(=O)(=O)NC(=O)c1ccccc1)c1ccccc1
→ 3.0, -4.9
> Cc1ccc2nc(CCC(=O)O)[nH]c2c1
→ 7.0, -4.5
> COc1ccc2ccccc2c1Br
→ /, -3.1
> FC(F)(F)c1ccc(Oc2ccc(Oc3ccc(C(F)(F)F)cn3)cc2)nc1
→ /, -1.3
> COc1ccccc1NC(=O)CCC(=O)N1N=C(c2ccc(Br)cc2)CC1c1ccccc1 (stereo not drawn)
→ /, -0.2

Screens (PubChem BioAssay)
